MT1-MMP act inh – MT1-MMP (human) activation inhibition. P50281. HT1080 RFP-PRO-GFP cells, GFP/RFP ratio fluorescence, overnight; percent of plate control window, DMSO zero. GFP/RFP ratio change, % at 20 µM. actives 0.061% (n = 360,000). AID 651647;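 active = GFP/RFP ratio change of at least 30% with cell ATP level not reduced by more than half and red fluorescence within 50% of control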; note: strong numbers were not always called active
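Material – HT1080 RFP-PRO-GFP cells · Control set – DMSO wells and RFP-L50D-GFP cells · Incubation – overnight cell settling, then overnight compound exposure, 37 °C, 5% CO2 · Compound dosing – single-point 20 µM compound, 1% DMSO · Read-out – GFP/RFP fluorescence ratio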
Yeast UUG start – modulators of start codon recognition fidelity in yeast; activity score, % at 18.7 µM; actives 0.13% (n = 350,000); S. cerevisiae UUG-firefly luciferase reporter, luminescence/redox ratio; AID 602363;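 active = replicate mean at a twofold rise or more, about +100% in these data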;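 note: firefly luciferase made from a UUG start codon reports start codon fidelity; reporter light over untreated wells divided by growth signal over untreated wells; some hits fall short of that in this replicate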
PABP FP inh – PABP-poly(A) binding inhibition; inhibition, % at 35 µM; P11940; actives 1% (n = 290,000); AID 2014; PABP-poly(A) RNA binding, fluorescence polarization;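 active = 50% or more with normal probe brightness, or confirmed in later tests; inconclusive = above 50% with abnormal brightness, or retests that disagree; inactive = below 50% or failed in later tests; about a fifth of its hits are not listed in these tables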;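 note: calls also rest on retests at 20 µM and on dose response follow-up; controls were probe without protein and protein plus probe with vehicle; some compounds called inactive have numbers as strong as hits; many hits fall short of the cut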
Target sequence (P11940 whole entry, looked up): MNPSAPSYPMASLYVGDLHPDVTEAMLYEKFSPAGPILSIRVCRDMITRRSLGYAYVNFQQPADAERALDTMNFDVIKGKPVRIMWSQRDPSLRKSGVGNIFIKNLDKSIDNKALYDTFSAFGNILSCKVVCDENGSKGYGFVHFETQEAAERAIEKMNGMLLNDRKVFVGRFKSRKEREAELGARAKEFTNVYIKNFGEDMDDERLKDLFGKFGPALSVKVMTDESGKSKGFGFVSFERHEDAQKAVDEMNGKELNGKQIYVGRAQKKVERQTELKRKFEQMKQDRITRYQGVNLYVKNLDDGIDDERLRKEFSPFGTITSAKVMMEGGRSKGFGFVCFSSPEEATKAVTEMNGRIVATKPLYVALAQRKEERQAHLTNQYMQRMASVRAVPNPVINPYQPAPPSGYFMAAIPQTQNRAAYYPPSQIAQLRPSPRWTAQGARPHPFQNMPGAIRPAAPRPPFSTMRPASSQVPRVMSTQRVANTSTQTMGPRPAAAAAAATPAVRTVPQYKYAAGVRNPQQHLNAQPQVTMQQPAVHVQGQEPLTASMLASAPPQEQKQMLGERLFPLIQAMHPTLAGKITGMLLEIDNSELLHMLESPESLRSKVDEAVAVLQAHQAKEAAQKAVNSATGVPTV
CSC inhib – blocks cancer stem cells; cancer stem cell-like cells viability, luminescence; inhibition, % at 7.5 µM; actives 1.1% (n = 300,000); AID 2717;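 active = mean at 75% or more and at least half the replicates too; inconclusive = mean and replicates disagree; tested in HMLE shEcad cells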;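 note: 0% = median of negative and 100% = median of positive control wells; the first replicate is given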
eIF4H FP inh – inhibitors of RNA binding by human eIF4H; Q15056; eIF4H fluorescence polarization binding assay; inhibition, % at 35 µM; actives 0.94% (n = 290,000);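 active = 50% or more with normal probe brightness, or confirmed in later tests; inconclusive = above 50% with abnormal brightness, or retests that disagree; inactive = below 50% or failed in later tests; about a fifth of its hits are not listed in these tables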;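 note: calls also rest on retests at 20 µM and on dose response follow-up; 0% = protein and probe with vehicle and 100% = probe without protein; strong numbers were not always called active; many hits fall short of the cut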
HIV Env fusion – blocks HIV Env-driven cell-cell fusion. inhibition, % at 12.3 µM. AID 651610. actives 1.1% (n = 360,000). HeLa-JRFL Env/CEM21 cell fusion, luciferase;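 active = mean replicate inhibition score of at least 50 and every replicate individually at or above 50; inconclusive = only one of the two criteria met; inactive = mean below 50 and not all replicates reaching 50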;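 note: 0% = plate neutral controls and 100% = maraviroc near 300 nM; one replicate is shown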
Rce1 inh – blocks yeast Ras-converting enzyme; Q03530; yeast membranes, quenched prenylated peptide cleavage fluorescence; calls only; actives 0.27% (n = 290,000); AID 2563;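 active = fall in fluorescence gain of 50% or more versus controls, with final raw signal at or below 3038400; inconclusive = same 50% fall but final raw signal above 3038400; inactive = fall in fluorescence gain under 50%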;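 note: plate controls were neutral control wells for no effect and wells lacking membranes for full effect; tested at 10 µM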
MT1-MMP act inh RFP – recorded beside MT1-MMP act inh, whose call it bears; RFP signal change, %; measured here: RFP expression control read;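 0 = vehicle wells; hits needed this value within 50% of zero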
* = called active by the depositor; i = inactive; ? = inconclusive; · = no result given. This is a subset. The share of hits here may be higher or lower than overall.

Every second line gives: MT1-MMP act inh, MT1-MMP act inh RFP, Yeast UUG start, PABP FP inh, CSC inhib, eIF4H FP inh, HIV Env fusion, Rce1 inh
CCOCCCN(C(=O)c1snc(C(N)=O)c1N)C(C(=O)NC1CCCC1)c1ccc(O)c(OC)c1 (configuration not stated)
 : 1, -1, -13, -4, 4, -2, 8, i
CNC(=O)c1ccc2nc(NC(C)=O)sc2c1
 : 9, 4, -13, 10, 6, -4, ·, i
O=C(NCC(c1ccco1)N1CCCC1)c1ccc(-n2cccn2)cc1 (configuration not stated)
 : 3, 4, 1, ·, 1, ·, -10, ·
CCO[C@H]1OC(C(=O)O)=C[C@@H](c2cn(C(C)=O)c3ccccc23)[C@@H]1CCCO
 : -1, 5, -5, ·, -10, ·, -10, i
COc1ccc(OC)c(C(=O)CSc2nnc(-c3cccnc3)n2C)c1
 : 2, 4, ·, 1, -12, -7, ·, i
O=C(NC1CCCc2ccccc21)C1CCCC1 (configuration not stated)
 : 4, 2, -19, 6, -11, -10, 14, i
Cc1ccc(-c2nn(-c3ccccc3)cc2C(=O)Nc2cccc(S(=O)(=O)N3CCOCC3)c2)cc1
 : 0, -2, ·, 10, 2, 6, ·, i
Cc1c(C)c2ccc(OCC(=O)N3CCC(C(=O)O)CC3)cc2oc1=O
 : 1, 3, -16, 0, -7, -6, ·, i
Cc1cc(Cl)ccc1NC(=S)NCCC(c1ccccc1)c1ccccc1
 : -5, -10, 112*, -4, -2, -10, -28, i
CCCCP(=O)(c1ccccn1)c1ccccn1
 : 2, 1, 0, -11, ·, -10, -23, ·

Carrying on:
Every second line gives: MT1-MMP act inh, MT1-MMP act inh RFP, Yeast UUG start, PABP FP inh, CSC inhib, eIF4H FP inh, HIV Env fusion, Rce1 inh
O=C(COC(=O)c1cc(=O)c2ccccc2o1)Nc1ccccc1F
 : 1, -2, -6, ·, -4, ·, -1, ·
O=C(COc1ccc(/C=N/NC(=O)c2ccncc2)cc1)Nc1cccc([N+](=O)[O-])c1
 : 1, -1, -9, 5, 11, -2, -11, i
O=C1C2CCCCC2C(=O)N1Cc1ccccc1 (configuration not stated)
 : 0, -2, ·, 4, 13, -8, -2, i
O=C(Nc1nnc(-c2ccccc2F)s1)C1CCN(S(=O)(=O)c2ccc(Cl)cc2)CC1
 : 3, 4, ·, 10, -4, 1, ·, i
O/N=C/c1cc(Br)cc(Br)c1OCc1ccccc1
 : -6, -2, -12, 8, 4, -11, 2, i
CCC(C)NCCOCCOc1ccc(C)cc1OC (configuration not stated)
 : -1, 4, -9, 5, -8, 6, -18, i
COc1ccc(OC)c(Nc2cc(C(=O)NCCCN3CCOCC3)c3ccccc3n2)c1
 : 4, 4, -5, -4, 6, -4, ·, i
CCc1ccc(N=c2c([N+](=O)[O-])nn(-c3ccccc3)n2O)cc1
 : 2, -9, -11, -5, 4, -7, ·, i
C/C(CCCO)=N/Nc1ccc([N+](=O)[O-])cc1[N+](=O)[O-]
 : 10, 6, ·, 1, 3, 13, 3, ·
O=C(COC(=O)C1CCN(c2ccc(C(F)(F)F)cn2)CC1)NCCc1ccccc1
 : 1, 3, -14, ·, -7, ·, 15, i

A section from the list above:
Every second line gives: MT1-MMP act inh, MT1-MMP act inh RFP, Yeast UUG start, PABP FP inh, CSC inhib, eIF4H FP inh, HIV Env fusion, Rce1 inh
O/N=C/c1cc(Br)cc(Br)c1OCc1ccccc1
 : -6, -2, -12, 8, 4, -11, 2, i
CCC(C)NCCOCCOc1ccc(C)cc1OC (configuration not stated)
 : -1, 4, -9, 5, -8, 6, -18, i
COc1ccc(OC)c(Nc2cc(C(=O)NCCCN3CCOCC3)c3ccccc3n2)c1
 : 4, 4, -5, -4, 6, -4, ·, i
CCc1ccc(N=c2c([N+](=O)[O-])nn(-c3ccccc3)n2O)cc1
 : 2, -9, -11, -5, 4, -7, ·, i
C/C(CCCO)=N/Nc1ccc([N+](=O)[O-])cc1[N+](=O)[O-]
 : 10, 6, ·, 1, 3, 13, 3, ·
O=C(COC(=O)C1CCN(c2ccc(C(F)(F)F)cn2)CC1)NCCc1ccccc1
 : 1, 3, -14, ·, -7, ·, 15, i

(continued)
Every second line gives: MT1-MMP act inh, MT1-MMP act inh RFP, Yeast UUG start, PABP FP inh, CSC inhib, eIF4H FP inh, HIV Env fusion, Rce1 inh
COC(=O)COc1cccc(NC(=O)c2ccc(Cl)cc2)c1
 : 2, 3, ·, -12, -14, -12, 17, i
Cc1ccc(OCC(=O)NS(=O)(=O)c2ccccc2)cc1
 : 0, -1, 3, 1, -2, 5, 2, i
COc1ccccc1CN(C)CC(=O)Nc1ccc(Cl)cc1F
 : -2, -2, ·, ?, 4, -3, 18, i
Cc1ccc(C)c(-n2c(-c3ccncc3)n[nH]c2=S)c1
 : 1, 4, ·, -5, -13, -4, 6, i
CC(=O)c1nnn(-c2cccc(C#N)c2)c1C
 : 7, 2, -7, 4, -8, 0, 16, i
O=C(COc1ccccc1)Nc1nnc(-c2ccccc2Cl)o1
 : -3, 5, -20, 2, 3, 1, -13, i
O=C(NCCc1ccc(F)cc1)N1CCOCC1
 : 5, 30, -19, -6, ·, -7, -52, i
COc1cc(NC(=O)C2CCCN2C(=O)OCc2ccccc2)cc(OC)c1 (configuration not stated)
 : -1, -1, -2, 3, -15, 6, ·, ·
Brc1ccc(CSc2ccc3nnc(-c4cccnc4)n3n2)cc1
 : 2, -4, ·, 3, 6, -1, 17, i
CC(=O)Nc1ccc(-c2csc(NC(=O)CN3C(=O)NC4(CCCC4)C3=O)n2)cc1
 : 3, -2, -18, ·, ·, ·, 7, i

Next records:
Every second line gives: MT1-MMP act inh, MT1-MMP act inh RFP, Yeast UUG start, PABP FP inh, CSC inhib, eIF4H FP inh, HIV Env fusion, Rce1 inh
COc1ccc(NC(=O)COC(=O)CN2C(=O)C3CCCCC3C2=O)cc1 (configuration not stated)
 : 0, 2, 0, ·, ·, ·, -10, ·
Cc1nc2cc(N3CCOCC3)c(NC(=O)C3CC3)cc2c(=O)n1Cc1ccccc1
 : 6, 2, -10, 18, ·, -8, -7, i
CC(=O)c1ccc(-c2[nH]c3ccccc3c2CCN2C(=O)c3ccccc3C2=O)cc1
 : 4, -2, -9, ·, ·, ·, -37, ·
Cc1cc(NC(=O)Cn2nc(-c3ccccc3F)ccc2=O)ccc1-n1cnnn1
 : 2, 0, -12, 3, -4, -1, 10, i
Nc1nc(SCc2ccc(Cl)c(Cl)c2)n[nH]1
 : 4, 1, ·, 1, 7, 6, -8, i
CCOC(=O)[C@H]1[C@H]2COc3ccccc3[C@@H]2N2C(=O)CN(Cc3ccc(C)cc3)C(=O)[C@@]12C
 : -62, 3, 17, ·, ·, ·, -18, ·
CCCCC(NC(=O)Cc1c(C)c2cc3c(-c4ccccc4)coc3c(C)c2oc1=O)C(=O)O (configuration not stated)
 : 11, 0, -6, 32, 19, 0, -6, i
COc1ccc2c(c1OC)C(=O)N1C2SC(C)(C)[C@H]1C(=O)NCC(C)C (some centres not stated)
 : 2, 1, -8, 2, -3, -10, 2, i
CC1(C)Cc2c(cnn2-c2ccccc2)C(NC(=O)CCN2CCCC2=O)C1 (configuration not stated)
 : 2, 2, -22, -3, 13, -9, 2, i
CCCN1CCN(CCCNC(=O)Cn2nc(C)n3c(cc4cc(F)ccc43)c2=O)CC1
 : 0, 7, -7, -11, -14, 2, 20, i

Other structures follow:
Every second line gives: MT1-MMP act inh, MT1-MMP act inh RFP, Yeast UUG start, PABP FP inh, CSC inhib, eIF4H FP inh, HIV Env fusion, Rce1 inh
CCOc1ccccc1NC(=O)Cn1nnc(C(=O)Nc2ccc(C)cc2)c1N
 : -6, -5, 14, -6, 0, 6, ·, i
COc1ccc(C(C(=O)NC2CCCCC2)N(C(=O)c2ccco2)c2ccc(-n3cnnn3)c(C)c2)cc1 (configuration not stated)
 : -2, 7, ·, ·, 0, ·, ·, i
Cc1ccc(S(=O)(=O)NCc2cccnc2)cc1
 : -2, 0, -7, 1, 1, -5, -3, i
CC(C)c1[nH]c(=O)c(C#N)c2c1CSC(C)(C)C2
 : -6, 1, -6, -4, ·, -6, ·, ·
COc1ccc(/C=C/c2c(-c3ccc(OC)cc3)oc(=O)c3cc(OC)c(OC)cc23)cc1
 : 4, -6, -14, ·, -9, ·, -17, ·
COC(=O)[C@]1(Cc2ccccc2)N[C@H](CN(C)C(C)=O)[C@@H]2C(=O)N(Cc3ccccc3)C(=O)[C@@H]21
 : 0, -1, 11, ·, ·, ·, -12, ·
O=C(OCc1nc2ccc(Cl)cc2n1CCO)c1ccc2c(c1)OCO2
 : -5, 3, -18, 10, 1, 8, -15, ·
O=[N+]([O-])c1cccc(NC(=S)Nc2nc(-c3ccc(Cl)cc3Cl)cs2)c1
 : ·, ·, ·, -7, 93*, -10, 47, i
CN1N=C(C(=O)N2CCc3c([nH]c4ccccc34)C2c2c(F)cccc2Cl)CCC1=O (configuration not stated)
 : 1, 2, ·, -4, 1, 1, -16, i
Cc1cc2c(cc1C)N(C(=O)CN1C(=O)c3ccccc3C1=O)C(C)(C)c1ssc(=S)c1-2
 : -3, 0, -3, -4, 10, -17, ·, i

Other compounds:
Every second line gives: MT1-MMP act inh, MT1-MMP act inh RFP, Yeast UUG start, PABP FP inh, CSC inhib, eIF4H FP inh, HIV Env fusion, Rce1 inh
Cn1c(=O)oc2cc(S(=O)(=O)NC3CCCCC3)ccc21
 : 3, 5, 1, 25, 0, 32, 8, i
N/C(=N\OC(=O)c1ccco1)c1cccc([N+](=O)[O-])c1
 : 1, 1, ·, 7, ·, 0, -25, i
O=C(NCc1ccc(F)cc1)c1cnccn1
 : 0, 1, -6, -20, 3, -2, -11, i
Cc1cccc(NC(=O)c2ccc(S(=O)(=O)N3CCCCC3)cc2)n1
 : 0, -8, -11, 6, -3, -8, 0, i
CCC(Sc1ccccc1C(=O)O)C(=O)O (configuration not stated)
 : -4, -2, -10, 10, -12, -7, 2, i
CCN(C(=O)CSc1nnc(NC2CCCCC2)s1)C1CCS(=O)(=O)C1 (configuration not stated)
 : 3, 7, ·, -2, -14, -2, 8, i
Cc1c(NC(=O)/C(C#N)=C/c2ccc(-c3cc(Cl)ccc3Cl)o2)c(=O)n(-c2ccccc2)n1C
 : -9, -17, ·, 18, 21, -17, -9, i
Cc1ccc(C(=O)NCC(=O)OCc2cccc(Br)c2)cc1
 : 2, 7, -10, ·, -9, ·, 13, i
CCN(C(=O)CSc1nc2ccccc2o1)c1c(N)n(Cc2ccccc2)c(=O)[nH]c1=O
 : -5, -1, -15, ·, -2, ·, 3, i
Cc1ccc(OCCOC(=O)CCc2nc3ccccc3c(=O)[nH]2)cc1
 : -1, 2, -15, 6, 1, -8, 2, i
COc1ccc(CNC(=O)C2CCCN(S(=O)(=O)c3ccc(Br)s3)C2)cc1 (configuration not stated)
 : 0, -7, -10, 2, ·, -8, 11, i
Cn1c(CN2CCCC2)nc2cc(NC(=O)COc3ccc([N+](=O)[O-])cc3)ccc21
 : -3, -2, ·, -7, 7, -5, 12, i
O=C1[C@@H](Oc2ccccc2)[C@@H](c2cccnc2)N1c1ccccc1
 : -5, -14, -13, ·, ·, ·, -346, ·

Bioassay records as filed in PubChem BioAssay.
